D2 PAM: potentiates the human D2 dopamine receptor allosterically; potentiation, % (concentration not given with the values); AID 624464; DiscoveRx D2 beta-arrestin cells, luminescence, 90 min; 100% = 57 uM dopamine signal; P14416; hit rate 0.23% among 360,000; active = potentiation of 50% or more; inconclusive = 30% to 50%; inactive = 30% or less;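 further: compound concentration not given in the record; tested on top of an EC20 dose of dopamine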
Target sequence (P14416 whole entry, looked up): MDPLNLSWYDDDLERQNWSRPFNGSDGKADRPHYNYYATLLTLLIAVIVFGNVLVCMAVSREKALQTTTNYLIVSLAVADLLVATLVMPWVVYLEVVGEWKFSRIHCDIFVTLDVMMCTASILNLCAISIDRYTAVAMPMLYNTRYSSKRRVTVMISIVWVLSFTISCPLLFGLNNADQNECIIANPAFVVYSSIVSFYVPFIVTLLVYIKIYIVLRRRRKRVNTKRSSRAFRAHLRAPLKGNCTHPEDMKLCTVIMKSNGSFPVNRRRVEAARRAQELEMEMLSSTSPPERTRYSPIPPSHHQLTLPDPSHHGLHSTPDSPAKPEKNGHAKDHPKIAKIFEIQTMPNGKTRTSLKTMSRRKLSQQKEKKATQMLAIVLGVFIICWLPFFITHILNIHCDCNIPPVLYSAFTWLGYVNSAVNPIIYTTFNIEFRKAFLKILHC
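PathHunter D2 cells, attached overnight at 37 deg C, received compound in DMSO plus dopamine at EC20 (50 nM final) for 90 min at 37 deg C. Beta-arrestin recruitment was read as luminescence after 1 h with detection reagent at ambient temperature.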
Sfp PPTase inh: blocks B. subtilis Sfp PPTase activity | Q9F4F7 | AID 1490 | Potency, µM, for inactives: max response, negative = inhibition, usual class: inhibitors | hit rate 3.5% among 310,000 | Biochemical Sfp PPTase activity, qHTS; active means well fitted inhibition curve with a large enough effect; inconclusive means small, poorly fitted or top-dose-only effect, or another doubt; inactive means no such curve, though single readings can be large or run the other way;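 further: the enzyme is Sfp with the accession as filed and its product quenches rhodamine fluorescence; potency means the concentration at half of the fitted maximal effect; 0% = enzyme reaction without inhibitor and -100% = no enzyme wells; top concentration of the series not given in the record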
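Step 1, compound plus 15 nM Sfp-PPTase, 15 min, room temperature. Step 2, add rhodamine-CoA (5 uM) and BHQ-2-YbbR (12.5 uM). Step 3, read 525/598 nm fluorescence at 0 and 30 min.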
Six1-Eya2 blk: inhibitors of human Six1/Eya2 interaction; AlphaScreen GST-Six1/His-Eya2 binding, biochemical; hits give low values; control for the full effect not named in the record; activity change, % (concentration not given with the values); hit rate 0.56% among 360,000; AID 651725; in the data active = activity change below about -65%; inconclusive = about -30% to -65%; inactive = above about -30%; further: on the % scale 0 is the no-effect control and ±100 the full control effect
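AlphaScreen with GST-Six1 and His-Eya2 (5X mix: 250 nM and 500 nM), glutathione donor and nickel acceptor beads; buffer 50 mM Tris pH 8.0, 300 mM NaCl, 1 mM TCEP; 1 h at 37 C in the dark.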
PINK1 modulator: PINK1 expression modulation. Potency, µM (highest dose often 76.6 µM), for inactives: at the highest dose activation (PINK1 increase), actives largely listed as activators. hit rate 0.2% among 410,000. AID 624263. PINK1 immunofluorescence, high-content cytometry, 24 h; active = well fitted activation curve with a large enough effect; inconclusive = small, poorly fitted or top-dose-only effect; inactive = flat fitted curve, though single readings scatter; cell line not stated here;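 further: potency means the concentration at half of the fitted maximal effect; % of control where 0% means no effect; nearly all actives have a fitted effect of over 65% in size; a mitochondrial uncoupler was the plate control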
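Fluorescence from anti-PINK1 antibody, together with nuclear and cell stains, was scanned on a laser-scanning cytometer. Before staining, stable-line cells were incubated 24 hours with compounds at 5 concentrations; primary antibody 12 h at 10 degrees C.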
TRPV1 PAM: potentiators of human vanilloid receptor 1 (TRPV1); potentiation, % at 8.33 µM; Q8NER1; TRPV1-expressing cells, Fluo-8 calcium influx, capsaicin EC20 potentiation; host cell line not named in the record; control for the full effect not named in the record; hit rate 0.02% among 320,000; AID 540277; active means potentiation above 80%; inconclusive means 30% to 80%; inactive means below 30%; further: 0% is about no effect
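TRPV1-expressing cells were cultured overnight at 35.5C and loaded with Fluo-8 calcium dye for 40 to 90 min at room temperature. After a 10 s baseline, compound was added and calcium influx was read kinetically for 3 min (ex 480/em 520 nm).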
CtBP-E1A inh: inhibitors of CtBP/E1A interaction. activity change, % (test concentration not listed). AID 651724. AlphaScreen GST-E1A/His-CtBP binding, 1536-well; hits give low values; control for the full effect not named in the record. hit rate 0.49% among 340,000; in the data active means activity change below about -65%; inconclusive means about -30% to -65%; inactive means above about -30%; further: on the % scale 0 is the no-effect control and ±100 the full control effect; compound concentration not given in the record
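Steps: dispense buffer (Tris pH 8.0, NaCl 300 mM, TCEP 1 mM, BSA, Tween 20); add 5X protein mix (GST-E1A, His-CtBP, 125 nM each); pin 23 nL compound; 2 h at 37 °C, dark; add 5X beads (50 ug/mL); 1 h; read.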
D2 ag: human D2 receptor agonism in beta-arrestin assay | P14416 | DiscoveRx PathHunter D2 beta-arrestin, luminescence, 90 min; 100% = 57 uM dopamine signal | activation, % (no concentration beside the values) | hit rate 0.084% among 360,000 | AID 624465; in the data active = activation above about 40%; inconclusive = about 15% to 40%; inactive = below about 15%; further: compound concentration not given in the record; the text of the record calls up to 30% inactive
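DiscoveRx PathHunter D2 beta-arrestin cells (2,100/well) attached overnight, then compound-stimulated 90 min at 37 C in HBSS/10 mM HEPES/0.1% Tween-20 buffer; beta-galactosidase complementation read by luminescence after 1 h at ambient temperature. Dopamine 57 uM final (EC100) as control.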
* hit, by the source's call; ? = inconclusive; / = not tested or not shown; [ ] = another dose, or the depositor's remark.

Values run as follows: D2 PAM	Sfp PPTase inh	Six1-Eya2 blk	PINK1 modulator	TRPV1 PAM	CtBP-E1A inh	D2 ag
1) CC1(C(=O)NS(=O)(=O)c2ccccc2C(F)(F)F)CCN1C(=O)COc1ccc(Cl)cc1 (stereo not drawn)
  5	/	-1	-0.5%	/	4	6.1
2) Cc1ccc(C(=O)NN2CCOCC2)cc1
  0	0%	3	-1.3%	-6	7	-1.1
3) O=C(NC(=S)NCc1ccco1)c1ccccc1[N+](=O)[O-]
  -4	/	-4	0.2%	/	-20	4.3
4) COc1ccc(N(CC(=O)N/N=C/c2ccc3c(c2)OCO3)S(=O)(=O)c2ccc(NC(C)=O)cc2)cc1
  9	-4%	-28	-1.0%	-2	-25	3.1
5) NC(=O)c1cc2ccccc2o/c1=N\NC(=O)c1ccco1
  -10	-9%	?	0.4%	11	?	1.9
6) COc1ccc(C)cc1C1=CC(=O)C[C@H](c2ccc(F)cc2)C1
  -13	/	14	5.1%	3	/	0.8
7) O=C(O)C(Oc1ccc2c3c(c(=O)oc2c1)CCC3)c1ccccc1 (stereo not drawn)
  -7	5%	-10	-0.7%	9	-3	-3.8
8) O=C(N/N=C/c1cc(Br)ccc1O)c1cccc(N2CCCC2=O)c1
  -13	4%	-78*	4.2%	?	-67*	-0.5
9) CC(=O)N1C[C@H]2CON(C)[C@H]2C[C@H]1c1ccccc1
  -5	/	10	1.6%	/	0	9.4
10) Cc1ccc(CSCCNC(=O)CN(c2cc(C)ccc2C)S(C)(=O)=O)cc1
  -3	11%	-3	1.6%	9	-21	-2.9
11) O=c1cc(N2CCCC2)[nH]c(=O)n1-c1ccc(Cl)cc1
  -5	8%	1	-1.0%	?	-12	-5.9
12) CCOc1ccc(C(=O)CCN2CCOCC2)cc1
  -2	-11%	3	1.3%	2	-3	-4.2
13) COc1ccc(NC(=O)CN(C)C(=O)C2CC(=O)N(c3cccc4ccccc34)C2)cc1 (stereo not drawn)
  0	/	0	1.7%	-4	8	0.9
14) COc1ccccc1CNC(=O)[C@@H]1CCCN1S(=O)(=O)c1ccccc1F
  -3	2%	9	4.5%	3	3	-5.2
15) C=CCN=C(NC#N)SCC(=O)NC(C)(C)C
  -2	8%	3	-0.5%	-24	2	-10
16) CCCNC(=O)Cn1cc(S(=O)(=O)N2CCCC2)c(S(=O)(=O)N2CCCC2)c1
  -11	5%	3	0.2%	6	6	-6.0
17) CCOc1cc2c(cc1/C=C(/C#N)c1ccc(C(=O)O)cc1)OCO2
  2	-22%	-2	0.3%	?	0	-2.0
18) COc1ccc(CNc2ncc(-c3cccc([N+](=O)[O-])c3)n2C)c(OC)c1OC
  -38	-13%	-9	-1.1%	-1	/	-4.5
19) Cc1cscc1NC(=O)/C=C/C(=O)O
  -2	-3%	-3	-0.3%	-5	-6	-1.5
20) O=C(CNc1ccc(C(F)(F)F)cc1[N+](=O)[O-])OCC(=O)c1ccccc1
  -19	-1%	-14	-0.6%	4	-15	-1.8

A run of entries from further up:
Values run as follows: D2 PAM	Sfp PPTase inh	Six1-Eya2 blk	PINK1 modulator	TRPV1 PAM	CtBP-E1A inh	D2 ag
1) CC1(C(=O)NS(=O)(=O)c2ccccc2C(F)(F)F)CCN1C(=O)COc1ccc(Cl)cc1 (stereo not drawn)
  5	/	-1	-0.5%	/	4	6.1
2) Cc1ccc(C(=O)NN2CCOCC2)cc1
  0	0%	3	-1.3%	-6	7	-1.1
3) O=C(NC(=S)NCc1ccco1)c1ccccc1[N+](=O)[O-]
  -4	/	-4	0.2%	/	-20	4.3

Some of these compounds in order of heavy-atom count, ascending:
Values run as follows: D2 PAM	Sfp PPTase inh	Six1-Eya2 blk	PINK1 modulator	TRPV1 PAM	CtBP-E1A inh	D2 ag
12) CCOc1ccc(C(=O)CCN2CCOCC2)cc1
  -2	-11%	3	1.3%	2	-3	-4.2
3) O=C(NC(=S)NCc1ccco1)c1ccccc1[N+](=O)[O-]
  -4	/	-4	0.2%	/	-20	4.3
7) O=C(O)C(Oc1ccc2c3c(c(=O)oc2c1)CCC3)c1ccccc1 (stereo not drawn)
  -7	5%	-10	-0.7%	9	-3	-3.8

Some values from above:
For D2 PAM, compound 9 has the entry -5
For D2 ag, compound 12 has the entry -4.2
For D2 PAM, compound 16 has the entry -11
For Six1-Eya2 blk, compound 6 has the entry 14

Continued:
Values run as follows: D2 PAM	Sfp PPTase inh	Six1-Eya2 blk	PINK1 modulator	TRPV1 PAM	CtBP-E1A inh	D2 ag
21) O=C(N/N=C1/CC2C=CCC12)c1ccc(Br)o1 (stereo not drawn)
  -2	-25%	-2	-0.1%	-25	-1	-3.1
22) C[C@@H]1CN([C@@H](C)CO)S(=O)(=O)c2ccc(Br)cc2O[C@@H]1CN(C)C(=O)c1ccccn1
  /	/	1	0.3%	/	0	-1.2
23) O=C1COc2ccc(S(=O)(=O)Nc3ccc(OC(F)(F)F)cc3)cc2N1
  1	26%	-2	11%	-15	/	1.9
24) Cc1ccc2nc(-c3ccccc3Cl)cc(C(=O)Nc3cc(C)on3)c2c1
  -6	-4%	-5	-2.3%	-8	-2	0.8
25) CS(=O)(=O)N1CCC(C(=O)NCc2ccc3c(c2)OCO3)CC1
  -6	14%	-1	0.1%	0	-20	-1.4
26) c1cc(-c2ccsc2)n2ccnc2c1
  -8	/	-2	2.8%	/	-3	6.0
27) CCOC(=O)C1=C(CSc2nc(-c3ccccc3)ccc2C#N)OC(N)=C(C#N)C1c1ccc(OC)cc1 (stereo not drawn)
  -20	-17%	-22	1.2%	0	-10	0.8
28) CCN(CC(=O)Nc1ccc2c(c1)OCCO2)C(=O)c1ccc(S(=O)(=O)N(C)C)cc1
  -26	/	-3	12%	2	7	-4.5
29) CCc1cccc2c(C(=O)C(NCCCOC)c3ccccc3)c[nH]c12 (stereo not drawn)
  -15	9%	7	0.9%	-3	-1	-6.6
30) O=C(/C=C\NCC(=O)c1ccccc1)c1ccccc1
  -11	-7%	4	-1.0%	-1	-10	-2.3
31) COc1ccc(CCNC(=O)CCNC(=O)c2ccco2)cc1
  -19	8%	-6	1.5%	2	0	-1.7
32) O=C(Nc1ccc(Br)c(C(F)(F)F)c1)c1ccc(C(F)(F)F)cc1
  -15	9%	19	-1.2%	-26	17	-0.6
33) CC(=O)c1ccc(N2CCN(C(=O)c3ccc(-c4ccccc4)cc3)CC2)cc1
  -4	5%	6	5.2%	-3	9	-2.0
34) CCN(CCCNC(=O)C1CCN(S(=O)(=O)c2cccc3nonc23)CC1)Cc1ccccc1
  -12	6%	-2	0.2%	1	4	-0.7
35) CCN1CCN(Cc2ccc(OC)c(OCc3ccccc3)c2)CC1
  -15	2%	0	1.7%[38.3 µM]	9	2	-1.5
36) O=C(Nc1nnc(Cc2ccccc2)s1)c1ccccc1
  -3	32%[activator]	6	-0.9%	-2	5	-2.6
37) O=C(NCC(=O)N(CC1CCCO1)C(C(=O)NC1CCCCC1)c1ccccc1)c1ccco1 (stereo not drawn)
  -6	21%	1	0.2%	-1	/	-1.5
38) O=C(COC(=O)c1ccccn1)Nc1nc(-c2ccccc2)cs1
  1	6%	37	1.9%	-3	-12	-3.8
39) COc1ccc(NC(=O)N2CCC(O)(c3cccnc3)CC2)c(OC)c1
  -25	8%	2	1.6%	-7	-2	-0.6
40) Cc1nc(COc2cc3oc(=O)cc(C)c3cc2Cl)cs1
  -5	-11%	2	4.9%	?	2	-3.4

Later entries
Values run as follows: D2 PAM	Sfp PPTase inh	Six1-Eya2 blk	PINK1 modulator	TRPV1 PAM	CtBP-E1A inh	D2 ag
41) O=S(=O)(c1ccc(Cl)cc1)n1ccc2cccnc21
  -10	16%	5	-1.7%	-1	1	-0.9
42) N#CCCC(CCC#N)C1=NCCc2ccccc21
  -2	9%	-1	1.0%	-3	3	-1.0
43) Cc1ccc(C)c(NS(=O)(=O)c2ccc3[nH]c(=O)[nH]c3c2)c1
  2	-17%	6	7.5%	13	4	0.4
44) Cc1ccc(C(=O)N2CCN(C)CC2)cc1S(=O)(=O)N1CCCCC1
  -4	9%	9	2.3%	-12	-20	-3.4
45) Cc1cc(N)n(-c2ccc(Oc3ccccc3)c(S(=O)(=O)O)c2)n1
  1	?	-21	2.0%	22	2	3.3
46) O=C(O)CCC(=O)N(Cc1cccs1)Cc1cccs1
  -23	18%	-1	/	3	4	-2.7
47) CCOC(=O)/C(C)=C1\NC(C)(C)Cc2ccccc21
  -4	?	5	-1.6%	-1	0	-5.0
48) CCOC(=O)c1[nH]c2ccccc2c1NC(C)=O
  -6	21%	5	2.7%	-20	-2	3.3
49) O=C(CSC1=NCCS1)N1CCN(c2ccccc2)CC1
  -26	8%	3	-1.2%	16	-2	-3.4
50) COC(=O)c1ccc(NC(=S)NC(=O)c2cc(-c3ccccc3)nc3ccccc23)cc1
  -20	2%	-11	-1.8%	4	?	-6.0
51) O=C(NCc1cccnc1)C(=O)NCC(c1ccco1)N1CCN(c2ccccc2F)CC1 (stereo not drawn)
  6	-4%	-4	2.0%	-9	2	41*
52) Cc1ccc2nc(C)c(C)nc2c1N
  -3	18%	-2	6.9%	19	11	0.9
53) CC(C)C(NC(=O)c1ccccc1)C(=O)OCc1cc([N+](=O)[O-])cc2c1OCOC2 (stereo not drawn)
  -5	4%	17	-0.1%	6	/	-3.7
54) C[C@@H]1CN([C@@H](C)CO)C(=O)CCCn2nncc2CO[C@H]1CN(C)C(=O)NC1CCCCC1
  0	/	-5	0.1%	/	-14	-1.4
55) CCc1nc2ccc(C(=O)N(C)Cc3ccco3)cn2c1N(CC)C(=O)NCCc1ccccc1
  -4	/	5	0.4%	/	5	-5.6
56) COc1cc(/C=C/c2ccc(O)cc2)cc(OC)c1
  12	56µM*	-7	4.6%	1	-3	13
57) O=C1c2ccccc2C(=O)N1CCCc1nc(-c2ccc(Cl)cc2)no1
  2	9%	13	2.7%	/	1	-5.6
58) CCOC(=O)c1c(C)[nH]c(C(=O)OCC(=O)Nc2sc(C(=O)N(C)C)c(C)c2C(=O)OCC)c1C
  -9	/	-5	-1.5%	3	0	-7.3
59) CSc1oc(-c2ccc(F)cc2)nc1S(=O)(=O)c1ccccc1
  -4	7%	2	-0.6%[38.3 µM]	-5	8	-1.8
60) Cc1cc(C(=O)NCc2cccs2)ccc1[N+](=O)[O-]
  7	4%	-8	8.3%	-15	3	-0.6
61) COc1ccccc1N1CCN(C(=O)c2cc(-c3cccs3)on2)CC1
  -22	-9%	11	2.3%	1	32	-2.4
62) COc1cc(/C=C(/C#N)C(=O)Nc2ccc(C)cc2)ccc1Oc1nc(Cl)ncc1F
  -20	3%	6	6.7%	-26	4	-2.1
